GALR2 ag: activates the human galanin receptor 2; O43603; GALR2-expressing cells, agonist activation read-out; activation, %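 (tested at 5 µM)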; hit rate 0.48% among 140,000; AID 803;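 active = above mean plus 3 SD of all compounds, about 5% in these data, not always enough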;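 also: 0% = vehicle buffer wells and 100% = reference agonist at full effect; tested in CHO reporter cells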
HSV replic up: increases HSV replication in cells. HSV replication augmentation in cells, fold increase. maximum fold increase. hit rate 0.005% among 220,000;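 active = peak rise of 1.5-fold or more in the series; inconclusive = self-fluorescent or not available for retest; tested in PC3 cells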;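 also: first round at 10 µM; read as green reporter fluorescence; hits show the peak of a series up to 25 µM; 1 = signal of infected wells without compound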
INS promoter inh: TRM-6 insulin promoter activity inhibition; TRM-6 cells (human fetal islet line), insulin promoter-eGFP reporter, imaging; reporter expression induced with tamoxifen; inhibition, % at 2 µM; hit rate 0.9% among 130,000;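 active = inhibition above the mean plus 3 SD, with well images judged a real hit on visual review, cut at about 60% in these data, passing the limit was not always enough; inconclusive = inhibition over the cutoff but images rejected on review; inactive = inhibition not above the cutoff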
PKD1 inh: inhibitors of human PKD1 kinase. Q15139. PKD1 kinase fluorescence polarization assay. inhibition, %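 (about 10 µM by stock and volumes)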. hit rate 0.056% among 200,000. AID 797;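 active = inhibition of 50% or more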;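 also: controls were vehicle for no effect and a reference inhibitor for full effect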
Target sequence (Q15139 whole entry, looked up): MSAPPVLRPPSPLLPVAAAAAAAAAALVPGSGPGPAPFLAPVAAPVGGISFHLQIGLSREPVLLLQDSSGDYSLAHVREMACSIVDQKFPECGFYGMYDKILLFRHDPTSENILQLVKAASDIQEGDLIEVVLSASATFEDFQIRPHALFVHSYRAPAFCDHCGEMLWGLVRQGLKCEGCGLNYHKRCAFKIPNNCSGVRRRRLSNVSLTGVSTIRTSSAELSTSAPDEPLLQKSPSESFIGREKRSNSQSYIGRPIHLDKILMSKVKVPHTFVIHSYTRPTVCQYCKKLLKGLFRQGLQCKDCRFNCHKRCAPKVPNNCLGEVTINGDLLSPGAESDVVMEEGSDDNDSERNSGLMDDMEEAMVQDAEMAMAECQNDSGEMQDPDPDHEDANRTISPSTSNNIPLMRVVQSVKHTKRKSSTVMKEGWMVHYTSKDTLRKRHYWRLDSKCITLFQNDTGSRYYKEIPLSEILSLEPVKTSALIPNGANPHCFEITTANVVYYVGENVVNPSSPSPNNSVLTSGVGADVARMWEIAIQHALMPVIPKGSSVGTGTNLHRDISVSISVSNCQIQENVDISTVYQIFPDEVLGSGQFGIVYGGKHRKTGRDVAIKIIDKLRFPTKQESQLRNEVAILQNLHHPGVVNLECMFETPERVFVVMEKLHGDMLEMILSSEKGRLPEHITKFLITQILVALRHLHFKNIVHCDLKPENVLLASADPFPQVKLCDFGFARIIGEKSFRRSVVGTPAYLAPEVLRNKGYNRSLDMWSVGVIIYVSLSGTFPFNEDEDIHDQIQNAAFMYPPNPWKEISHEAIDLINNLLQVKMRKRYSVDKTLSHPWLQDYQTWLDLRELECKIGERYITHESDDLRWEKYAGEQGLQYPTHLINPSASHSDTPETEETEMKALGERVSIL
RGS16-Gao HTS: regulators of human RGS16-Galphao interaction; O15492+P09471; bead-based flow cytometry RGS16-Galphao binding, fluorescence; actives lie on both sides; binding response (% of control), % at 10 µM; hit rate 0.38% among 220,000;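 active = below 25% or above 175%, edge rows of some plates excepted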;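 also: Galphao activated by GDP with aluminum fluoride before binding; 100% = wells without compound and 0% = beads without RGS; some results beyond the cut were filed as inactive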
INS promoter inh cell count: further read-out of INS promoter inh, marked with its call; normalized cell count, %; measured here: cell count, toxicity; reference of the scale not given here;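 cells exposed to compound for 48 h; stained nuclei by imaging scaled within each plate; lower means fewer cells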
HSV replic up primary fold: further read-out of HSV replic up, marked with its call; fold increase; compound at 10 µM; measured here: primary screen fold increase 10 uM; tested in PC3 cells;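 GFP signal in the first replicate; 1 = infected wells without compound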
The depositor's hits bear a star; i = inactive; u = inconclusive; x = no result given.

SMILES	GALR2 ag	HSV replic up	HSV replic up primary fold	INS promoter inh	INS promoter inh cell count	PKD1 inh	RGS16-Gao HTS
O=C(CN1CCC(c2nc3ccccc3[nH]2)CC1)NCc1ccc2c(c1)OCO2	-1.6	i	0.98	20	58	-4	105
Cc1ccc(S(=O)(=O)NCC2CCCO2)cc1[N+](=O)[O-] (stereo unspecified)	-2.0	i	1	13	113	5	90
COc1ccc(CCN2C(=O)C(O)=C(C(=O)c3ccco3)C2c2cccs2)cc1OC (stereo unspecified)	-1.9	i	0.9	9	106	19	92
Cc1cc(C)n(-c2ccc(Cl)c(Cl)c2)n1	x	i	0.8	50	121	0	108
C=CCc1c(C)nc(-c2ccccc2)nc1N/N=C/c1ccccc1	-0.3	i	1	x	x	-3	96
Cc1nn(C2CCS(=O)(=O)C2)c(Cl)c1/C=C/C(=O)OCC(=O)Nc1ccccc1OC(F)F (stereo unspecified)	-2.5	i	1.1	66*	99*	1	101
COc1cc([N+](=O)[O-])ccc1NC(=O)CSc1ccccn1	x	i	0.92	x	x	0	101
CCOC(=O)c1cc2cc(OC)ccc2[nH]1	-0.5	i	0.95	-113	104	-3	100
C=CCOC(=O)C1=C(C)NC(SCC(=O)Nc2nccs2)=C(C#N)C1c1ccc(Cl)cc1 (stereo unspecified)	5.1	u	x	31	93	-14	102
CCOC(=O)C1=NN(C(C)=O)C2(CC(=O)N(c3cccc(C)c3)C2=O)C1 (stereo unspecified)	-0.6	i	1.1	x	x	0	103
Cc1ccc(-c2n[nH]c(=S)n2/N=C/C=C\c2ccccc2[N+](=O)[O-])cc1	-3.1	i	0.77	43	115	-9	98
COc1cccc(Cn2nnc(C(=O)NCc3ccc(F)cc3)c2N)c1	-2.0	i	1	x	x	18	98
Cc1ccc(C)c(NS(=O)(=O)c2ccc(OCC(=O)N3CCOCC3)cc2)c1	-2.0	i	1	x	x	6	94
Cc1cc(C)nc(-n2nc(C)cc2NC(=O)c2ccc(Br)o2)n1	-0.2	x	x	-35	126	2	x
Cc1ccc(-n2nnnc2C(Cl)(Cl)c2nnnn2-c2ccc(C)cc2)cc1	-2.2	i	0.97	x	x	-5	61
O=[N+]([O-])c1nn(-c2cccc(Cl)c2)n(O)c1=NCc1cccnc1	-1.6	i	1.2	x	x	-2	115
CCN(CCNCC(O)COCc1ccc(Cl)cc1)c1cccc(C)c1 (stereo unspecified)	x	i	0.78	x	x	-1	98
CCn1c(-c2cc(-c3ccccc3OC)nc3ccccc23)n[nH]c1=S	-1.0	i	0.87	21	110	11	102
Cc1cc(-c2csc(N)n2)c(C)n1CCc1ccccc1	-3.0	i	1	x	x	-10	95
Cc1ccc(C(=O)NCc2ccco2)cc1S(=O)(=O)Nc1cccc(C)c1C	-2.8	i	0.99	14	97	-1	103
CC(C)CN(CC(C)C)C(=O)CC(=O)NC(=O)c1ccc(Cl)cc1	-0.9	i	1	19	138	2	106
COc1ccc(C2CC(c3ccc(Cl)cc3Cl)n3nc(N)nc3N2)cc1 (stereo unspecified)	-0.6	i	0.98	x	x	-7	104
CCOC(=O)C1=C(c2ccccc2)O/C(=C(/C(=O)OC)C(F)(F)F)S1	1.1	i	0.84	-37	104	0	116
O=C(NCCCN1CCOCC1)C(=O)NCCc1ccccc1	x	i	0.88	46	76	-8	98
CCCC(=O)Nc1ccc2c(c1)nc1n2CCSC1	-1.2	i	1.1	x	x	3	114
Further results
SMILES	GALR2 ag	HSV replic up	HSV replic up primary fold	INS promoter inh	INS promoter inh cell count	PKD1 inh	RGS16-Gao HTS
Cc1c(C(=O)N2CCOCC2)cc(C(C)(C)C)n1-c1ccccc1	x	i	0.96	x	x	x	104
CCOC(=O)N1CCC(N(CCN(C)C)C(=S)Nc2cccc(OC)c2)CC1	x	i	0.95	22	80	2	100
O=C(OCC(=O)N1CCCc2ccccc21)c1cncc(Br)c1	-1.6	i	0.95	x	x	-5	95
CCC/C(O)=C1\C(=O)CCCC1=NCCc1c(C)[nH]c2ccccc12	x	i	1	x	x	x	104
CC1CCN(C(=O)C2CCCN(S(C)(=O)=O)C2)CC1 (stereo unspecified)	-2.0	i	1.1	50	89	-10	96
CCOC(=O)C(CCSC)NC(=O)CN (stereo unspecified)	-0.8	i	0.66	x	x	10	109
CCN1CCCCC(=N/O)/C(=N/O)CCCC1	x	i	1	x	x	x	98
O=C(Cn1cnc2ccccc21)N/N=C/c1ccccc1[N+](=O)[O-]	-1.9	i	1.1	x	x	-2	120
C/C(CCc1ccco1)=N/NC(=O)CCC(=O)Nc1ccc(Br)cc1	-1.3	i	0.95	22	110	3	100
CCOC(=O)NC(=O)/C(C#N)=C\Nc1sccc1C(=O)OC	x	i	2.1	x	x	6	98
COc1cc(/C=C2\CCc3ccccc3C2=O)cc(OC)c1OC	-0.5	i	0.57	17	120	-1	110
O=C(O)c1cc(-n2cccc2)ccc1N1CCOCC1	x	i	1	x	x	x	97
O=C(Nc1cccc2ccccc12)OCc1cncs1	x	i	1.1	-12	118	-2	100
Cc1ncsc1CCOC(=O)c1ccc(N2CCOCC2)c([N+](=O)[O-])c1	x	i	1.1	x	x	1	103
O=C(O)CCC(=O)NNC(=O)COc1ccc2ccccc2c1Br	x	i	0.89	x	x	3	96
C=CCc1c(C)nc(N)[nH]c1=O	-0.1	i	0.87	-406	69	-4	105
CC1CC(C)CN(CC(C)(C)NS(=O)(=O)c2ccc(Cl)cc2)C1 (stereo unspecified)	-1.8	i	1.1	3	60	3	110
Cc1cc(C(=O)Nc2sc3c(c2C#N)CCCCC3)cs1	1.3	i	1	55	102	5	101
Cc1ccc(COC(=O)c2nn(-c3ccccc3)nc2N)cc1	x	i	1	33	119	-2	104
O=C(N/C=C/c1ccc(Cl)cc1)NCc1ccc(Cl)cc1	-2.0	i	0.91	7	138	-4	109
Cc1cc(C)cc(Oc2cc(NC(=O)c3cn(C)nc3C)cc([N+](=O)[O-])c2)c1	-1.6	i	0.89	-19	72	-9	106
CN(C)CCN=Cc1c(O)n(Cc2ccccc2)c(=O)c2ccccc12	x	i	0.94	-117	96	3	91
COc1ccc(C2N(c3cccc(Cl)c3)C(=O)C3CCCN32)cc1 (stereo unspecified)	-2.9	i	1.2	x	x	6	77
O=C(CN1C(=O)NC(c2ccccc2)(c2ccccc2)C1=O)c1c[nH]c2ccccc12	x	i	0.82	x	x	-3	101
CCCn1c(=N)c(C(=O)NC2CCCC2)cc2c(=O)n3cccc(C)c3nc21	3.3	i	0.78	19	81	0	102
(continued)
SMILES	GALR2 ag	HSV replic up	HSV replic up primary fold	INS promoter inh	INS promoter inh cell count	PKD1 inh	RGS16-Gao HTS
CCCCSc1nc2sc3c(c2c(=O)[nH]1)CCC3	-2.9	i	0.95	-34	116	1	100
Cn1c(C(=O)OC(C(=O)NCc2ccco2)c2ccncc2)cc2sccc21 (stereo unspecified)	-0.6	i	0.97	i	90	-8	95
O=C(c1ccccc1F)N1CCN(c2ccc([N+](=O)[O-])c3cccnc23)CC1	x	i	0.98	x	x	0	106
O=C(NCc1cccnc1)/C(=C/c1ccc(-c2cccc(C(F)(F)F)c2)o1)NC(=O)c1ccccc1	-1.9	x	x	-56	128	2	110
COc1ccc(C2CC(c3ccccc3)=NN2C(=O)COC(=O)c2nc3nccc(C)n3n2)cc1 (stereo unspecified)	x	i	1	47	116	-3	96
Cc1ccc(C(=O)NCCc2sc(C)nc2C)cc1	-1.3	i	0.98	x	x	-6	102
CCOc1nnc(C)c2c(C)n(-c3cccc(Cl)c3)nc12	-1.3	i	1.1	-162	134	5	116
CC(=O)Nc1ccc(C(=O)N/N=C/c2cccnc2)cc1	0.8	i	0.92	-17	120	-13	107
CC(C)n1nnnc1SCC(=O)Nc1ccccc1N1CCOCC1	x	i	0.86	x	x	x	101
Cn1c(SCC(=O)c2ccc3c(c2)OCO3)nnc1-c1ccccn1	-1.7	i	1	38	123	-7	89
CCSc1nc(-c2cccnc2)ccc1C#N	0.9	i	0.78	11	98	5	109
CCCCc1c(O)cc(C)[nH]c1=O	x	i	1.1	x	x	x	106
CCOC(=O)c1oc2ccc(S(=O)(=O)n3nc(-c4cc(OC)c(OC)c(OC)c4)cc3N)cc2c1C	x	i	0.94	-57	83	0	102
CC(C)(C)c1ccc(S(=O)(=O)N2CCCCC2C(=O)NCc2ccccn2)cc1 (stereo unspecified)	x	i	0.95	x	x	x	100
Cc1ccc2c(c1)NC(=O)C(CC(=O)NCCN(C)C)O2 (stereo unspecified)	-0.7	i	0.84	x	x	-2	101
COC(=O)C1CSC(C(=O)OC)N1C(=O)Nc1ccc(Cl)c(Cl)c1 (stereo unspecified)	-0.6	i	0.96	31	76	2	99
CC(C)(C)c1ccc(-c2ncccc2O)cc1	x	i	0.95	x	x	-3	100
Nc1cc(C(F)(F)F)ccc1C(=O)O	-2.1	i	0.77	x	x	-2	102
COc1cc(/C=N\NC(=O)CN2CCOCC2)ccc1OCC(=O)Nc1ccc(C)c(C)c1	-3.9	i	1	10	98	-8	97
COc1ccc(/C=N/Nc2nc(-c3ccc(Cl)cc3)cc(C(F)(F)F)n2)c(OC)c1	-1.4	i	0.89	20	111	2	93
Cc1sc(NC(=O)c2ccco2)c(CN2CCC(C)CC2)c1C	-2.7	i	0.75	33	108	-1	102
COc1ccc(/C=N/NC(=O)CN(c2ccc(OC)cc2)S(=O)(=O)c2ccccc2)cc1	x	i	1	x	x	5	100
O=C(NCCCN=C1NS(=O)(=O)c2ccccc21)c1ccc(S(=O)(=O)N2CCOCC2)cc1	-2.3	i	1.2	x	x	-2	99
CC(C)c1nc2ccc(C(=O)O)cc2[nH]1	-1.5	i	1.1	-9	127	5	114
CC(C)NC(=O)C1CCN(C(=O)c2ccc(-c3ccccc3)cc2)CC1	-0.1	i	0.94	x	x	-2	100

Molecules shown so far that have a tert-butyl group (three):
SMILES	GALR2 ag	HSV replic up	HSV replic up primary fold	INS promoter inh	INS promoter inh cell count	PKD1 inh	RGS16-Gao HTS
Cc1c(C(=O)N2CCOCC2)cc(C(C)(C)C)n1-c1ccccc1	x	i	0.96	x	x	x	104
CC(C)(C)c1ccc(S(=O)(=O)N2CCCCC2C(=O)NCc2ccccn2)cc1 (stereo unspecified)	x	i	0.95	x	x	x	100
CC(C)(C)c1ccc(-c2ncccc2O)cc1	x	i	0.95	x	x	-3	100

Later entries.
SMILES	GALR2 ag	HSV replic up	HSV replic up primary fold	INS promoter inh	INS promoter inh cell count	PKD1 inh	RGS16-Gao HTS
Cc1ccc(S(=O)(=O)N2CCN(C(=O)c3c(C)nn(-c4ccccc4)c3Cl)CC2)cc1	-0.7	i	0.91	x	x	-3	100
Cc1ccc(C(=O)NCCc2ccccn2)cc1S(=O)(=O)N1CCOCC1	x	i	0.84	x	x	x	100
C=CCn1c(Cc2ccc(OCC)cc2)nnc1SCC(N)=O	-0.4	i	0.93	55	54	0	107
CCCOC(=O)c1ccc(NC(=O)Oc2ccccc2)cc1	-3.7	i	0.96	29	24	-6	97
CN(C)c1ccc(C=C2C(=O)OC(C)(C)OC2=O)cc1	x	i	0.92	47	72	-8	106
COc1ccc(C(=O)/C=C/C(=O)N(CC(=O)NC2CCCCC2)Cc2ccccc2)c(O)c1	x	i	0.61	x	x	1	88
CCCc1nc2ccccc2c2nc(N)nn12	-2.7	i	0.95	87*	110*	-8	106

Among those listed so far, these have an NH in an aromatic ring:
SMILES	GALR2 ag	HSV replic up	HSV replic up primary fold	INS promoter inh	INS promoter inh cell count	PKD1 inh	RGS16-Gao HTS
O=C(CN1CCC(c2nc3ccccc3[nH]2)CC1)NCc1ccc2c(c1)OCO2	-1.6	i	0.98	20	58	-4	105
CCOC(=O)c1cc2cc(OC)ccc2[nH]1	-0.5	i	0.95	-113	104	-3	100
Cc1ccc(-c2n[nH]c(=S)n2/N=C/C=C\c2ccccc2[N+](=O)[O-])cc1	-3.1	i	0.77	43	115	-9	98
CCn1c(-c2cc(-c3ccccc3OC)nc3ccccc23)n[nH]c1=S	-1.0	i	0.87	21	110	11	102
CCC/C(O)=C1\C(=O)CCCC1=NCCc1c(C)[nH]c2ccccc12	x	i	1	x	x	x	104
C=CCc1c(C)nc(N)[nH]c1=O	-0.1	i	0.87	-406	69	-4	105
O=C(CN1C(=O)NC(c2ccccc2)(c2ccccc2)C1=O)c1c[nH]c2ccccc12	x	i	0.82	x	x	-3	101
CCCCSc1nc2sc3c(c2c(=O)[nH]1)CCC3	-2.9	i	0.95	-34	116	1	100
CCCCc1c(O)cc(C)[nH]c1=O	x	i	1.1	x	x	x	106
CC(C)c1nc2ccc(C(=O)O)cc2[nH]1	-1.5	i	1.1	-9	127	5	114

Assay outcomes deposited in PubChem by several laboratories.

Hits appear at their usual frequency. Share with any hit: about 1.1%.
